NPYLR7 ag = activates Aedes aegypti NPYLR7 receptor. HEK293T NPYLR7/Galpha15, GCaMP6s calcium fluorescence. activation, % at 10 µM. 270,000 tested, 0.15% active. AID 1259423; in the data active = activation above about 40%;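 also: 0% = vehicle and 100% = reference agonist at the receptor; some compounds past the cut are filed as inactive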
NPYLR7 ag max-min = recorded beside NPYLR7 ag, whose call it bears; activation, %; measured here: Max-Min RFU normalised activation; some inactives read as strong as hits;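 span of the calcium signal over five minutes; 0% = vehicle and 100% = native peptide agonist; compound fluorescence can raise it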
The depositor's hits bear a star; & = joins results of further samples. A portion of the library. The share of hits here may be higher or lower than overall.

Each structure is followed by: NPYLR7 ag	NPYLR7 ag max-min
O=C(NCc1cccnc1)c1nn2c(C(F)(F)F)cc(-c3ccccc3)nc2c1Cl
 : 8	10
COc1ccc(Cc2n[nH]c(=O)c3ccccc23)cc1OC
 : -12	-17
Cc1cn2c3c(=O)n(CC(C)C)c(=O)n(C)c3nc2n1CCN1CCOCC1
 : -2	14
CC1CCN(S(=O)(=O)N2CC=C(c3c[nH]c4ccccc34)CC2)CC1
 : -1	-4
O=C(Nc1nc2ccc3ccccc3c2s1)c1ccccc1
 : -5	-8
Cc1nc(CN2CCCN(Cc3noc(C4CC4)n3)CC2)oc1C
 : 3	2
CC(NC(=O)c1ccc2c(c1)no[n+]2[O-])c1ccccc1-n1cccn1 (centres undefined)
 : 2	3
Cc1ccc(Cn2cccc(C(=O)O)c2=O)cc1
 : -4	-6
O=C1OC2C(C(=O)O)Sc3c(sc(=O)n3-c3ccccc3)C2c2cc(Br)ccc21 (centres undefined)
 : 7	3
CNc1ncccc1C(=O)N1CCCC(O)(CN(C)C)CC1 (centres undefined)
 : 0	-4
Cc1ccc(S(=O)(=O)NC(=O)C2(C)CCN2C(=O)Cc2ccc(C(C)(C)C)cc2)nc1 (centres undefined)
 : 8	4
CCCCCCC1CCC(c2noc(-c3cccc(Br)c3)n2)CC1 (centres undefined)
 : -8	-14
O=C(NCCc1nc2c(s1)CCC2)c1cn2c(n1)CNCC2
 : 5	4
CC1CCN(c2nc3c(c(=O)[nH]c(=O)n3C)n2CCSc2nc3ccccc3[nH]2)CC1
 : 6	6
O=C(O)COc1ccc(C=C2C(=O)NC(=S)NC2=O)cc1Br
 : -11	-20
O=C(O)c1ccc(Cn2cc(Br)cn2)o1
 : 2	-1
COCC1(C(=O)N(C)Cc2ccc(OC)c3ncccc23)CCC1
 : 4	1
COc1ccc(C(C)C)cc1[C@H]1N[C@](CO)(CCCO)[C@H]2CN(C)C[C@@H]12
 : 1	0
CN(CCNc1ncnc2c1CCN(C(=O)C1CC1)C2)S(C)(=O)=O
 : 6	3
CCNc1ncc(CN2CCn3nc(C(=O)N4CCCC4)cc3C2)cn1
 : 1	2
COc1ccccc1C(=O)NC(=O)COC(=O)c1ccc(C)o1
 : 7	2
Cc1cc(C)c(C(=O)N2CCN(c3nccc(-c4ccco4)n3)CC2)c(C)c1
 : -8	-11
COc1ccc(N2C(=O)CC(N3CCN(c4ncccn4)CC3)C2=O)cc1 (centres undefined)
 : 6&3	2&1
Cc1noc(-c2cccc(F)c2)c1C(=O)NCc1ccco1
 : -3	3
O=C(CN(CCCN1CCOCC1)C(=O)c1ccc(-c2ccccc2)cc1)N(Cc1ccc(F)cc1)Cc1ccco1
 : -1	1
CC(C)(C)c1cc(NC(=O)c2ccc(C(F)(F)F)cc2C(F)(F)F)n(-c2cccc(F)c2)n1
 : 24	20
CC(C)(C)n1ncc2c(=O)n(NC(=O)c3ccc(Cl)c([N+](=O)[O-])c3)cnc21
 : -4	-6
COc1ccc(OC)c(-c2cc(C(=O)N3CCN(C(=O)C4CC4c4cccs4)CC3)[nH]n2)c1 (centres undefined)
 : 1	-1
CCc1ccc(CN2CCOC(Cc3cccc(F)c3)C2)nc1 (centres undefined)
 : 0	-6
C=CCNC(=O)c1c(C(F)(F)F)nn(C2CCCN(C)C2)c1C (centres undefined)
 : 6	-3

Compound profiles (already shown):
Profile of COc1ccc(OC)c(-c2cc(C(=O)N3CCN(C(=O)C4CC4c4cccs4)CC3)[nH]n2)c1 (centres undefined) → NPYLR7 ag: 1; NPYLR7 ag max-min: -1
Profile of O=C(NCc1cccnc1)c1nn2c(C(F)(F)F)cc(-c3ccccc3)nc2c1Cl → NPYLR7 ag: 8; NPYLR7 ag max-min: 10
Profile of COc1ccccc1C(=O)NC(=O)COC(=O)c1ccc(C)o1 → NPYLR7 ag: 7; NPYLR7 ag max-min: 2

(more compounds)
Each structure is followed by: NPYLR7 ag	NPYLR7 ag max-min
COc1ccc(S(=O)(=O)Oc2ccccc2CN(Cc2ccco2)C(=O)c2ccccc2F)cc1
 : 1	4
O=C(c1ccccc1Oc1ccccc1)N1CCc2c(nc[nH]c2=O)C1
 : 7	1
CCCCCCc1ccc(C(=O)N2CCCC2c2nnc3c(C(F)(F)F)cccn23)cc1 (centres undefined)
 : -5	-10
COc1ccc(-c2ccc3nnc(SCC(N)=O)n3n2)cc1
 : -11	-3
Cc1cc(C(=O)N2CCCC2)ccc1NCc1nccc(N)n1
 : -2	-3
O=C1NCCN1c1cccc(C(=O)N2CCCC2Cc2cccc(F)c2)c1 (centres undefined)
 : 3	2
Cc1c(C(=O)NCCC#N)sc(=O)n1Cc1ccccc1C(F)(F)F
 : 11	9
C=CCN(Cc1ccc(C)s1)C(=O)c1ccc(S(C)(=O)=O)cc1
 : -4	-7
O=C(Nc1ccc(C(F)(F)F)cc1)N1CCSC1c1cccc(OCc2ccccc2)c1 (centres undefined)
 : -7	-5
O=C(O)c1ccc(N2C(=O)CC(N3CCN(c4ccccc4Cl)CC3)C2=O)cc1 (centres undefined)
 : 3	0
COc1ccc(C(=O)N(Cc2csc(COc3ccccc3OC)n2)C(C)C)cc1
 : 13	15
CC(C)C(NC(=O)N1CCN(c2ccc(C(F)(F)F)cc2[N+](=O)[O-])CC1)c1ccccc1 (centres undefined)
 : 0	5
COc1ccc(-c2cc(C(=O)NCc3ccc4c(c3)OCO4)n(-c3cccc(Cl)c3)n2)c(OC)c1
 : 12	22
Cc1cc2cc(CNS(C)(=O)=O)ccc2n1C
 : -3	-1
CC(=O)NCCC(=O)N1CCCC(CCc2cccc(F)c2)C1 (centres undefined)
 : 12	11
CC(=O)N(c1ccc(Cl)cc1)c1nc(C=O)cs1
 : 2	-2
CC1(C)C2CC1[C@]1(C)OB(c3ccccc3)O[C@@H]1C2 (some centres undefined)
 : -9	-10
CCc1cc(Oc2ccc(F)cc2)nc(SCc2cc(OC)cc(OC)c2)n1
 : -1	8
CC(Cn1cccn1)NC(=O)CCOc1cccc2c1OC(C)(C)C2 (centres undefined)
 : 2	-1
O=C(c1cncc(N2CCN(CCc3ccccc3)CC2)n1)N1CCCCC1
 : -3	-3
COc1ccc(-c2nc(Cn3nnc(C(=O)Nc4ccc(C)cc4C)c3C)c(C)o2)c(OC)c1
 : 6	3
CC(C)c1ccc(NC(=O)CSc2nc(=O)n(Cc3ccncc3)c3c2CCCC3)cc1
 : 14	7
Cc1ccc(Cl)c(OC2CC3CCC(C2)N3C(=O)c2ccc(CSc3ccc(C(F)(F)F)cn3)cc2)c1 (centres undefined)
 : 8	-6
CCC(C)Oc1ccccc1CN (centres undefined)
 : 24	24
CCCNC(=O)c1ccc(N2CCC(c3nn(C)c(=O)n3CC)CC2)nc1
 : 8	6
Cc1noc(C)c1CCC(=O)N1C[C@@H]2C3CCC(CC3)[C@@H]2C1
 : 6	2
Cc1ccc(NS(=O)(=O)c2ccc(Cl)cc2F)c(Cl)c1
 : 4	4
CC(=O)Oc1ccc(/C=C2\N=C(c3ccc(C)c(C)c3)OC2=O)cc1OC(C)=O
 : 1	-3
CCCCCCCCCC(=O)Oc1ccccc1-c1nc2cc(C)ccn2c1NC(C)(C)CC(C)(C)C
 : 10	14
CC(C)(CN1CCN(C(c2ccccc2)c2ccccc2)CC1)NS(=O)(=O)c1ccccc1
 : -1	-8

Additional compounds.
Each structure is followed by: NPYLR7 ag	NPYLR7 ag max-min
c1ccc(-c2cc(-c3nc(-c4ccccn4)no3)c3ccccc3n2)cc1
 : 0	-1
Cc1cccc(-n2cc(CN(C)C(=O)c3ccc(-n4cnnc4)cc3)cn2)c1
 : 2	1
CONC(=O)c1cc(-c2ccccc2OC)n[nH]1
 : 8	3
CC(C)C(NC(=O)CCC1CCCO1)c1ccc2[nH]c(=O)oc2c1 (centres undefined)
 : 4	4
Cc1cc(C)c(S(=O)(=O)N(CC(=O)N2CCc3sccc3C2c2ccccc2C)Cc2ccco2)c(C)c1 (centres undefined)
 : 18	23
Cn1cc(CN2CCCC(C(=O)c3ccccc3)C2)c(-c2ccc3c(c2)OCCO3)n1 (centres undefined)
 : 0	-2
O=c1c(NCCC2=CCCCC2)nccn1-c1ccc(F)c(Cl)c1
 : 1	-2
CC1CN(c2cc(Oc3ccccc3Cl)ncn2)CCN1S(=O)(=O)c1ccccc1 (centres undefined)
 : -10	-11
O=C(Nc1ccc(-c2noc(-c3ccccc3F)n2)cc1)c1ccco1
 : 0	-1
CCOc1ccc(-c2ccc(=O)n(CCNC(=O)c3ccc(Cl)nc3)n2)cc1
 : -3	-2
Cc1nn(C)c(C)c1C(C)NC(=O)C1CCCCN1S(C)(=O)=O (centres undefined)
 : 4	2
CCc1oc(C(=O)N[C@@H]2c3ccccc3C[C@@H]2O)cc1CN1CCCC1
 : -1	-2
Cc1cc(C(=O)N2CCc3c(nc[nH]c3=O)C2)c(NC(=O)C(C)(C)C)s1
 : 18	8
CCn1nnc2sc(-c3ccccc3)cc2c1=O
 : -9	-22
C#CCn1c(O)c(N=NC(=O)CNC(=O)c2ccc(OC)c(OC)c2)c2ccccc21
 : -1	-8
OC1CCCN(Cc2csc(Nc3ccccc3)n2)C1 (centres undefined)
 : 6	7
CC(C)CC(C(=O)NC(C)C12CC3CC(CC(C3)C1)C2)N1C(=O)C2CC=CCC2C1=O (centres undefined)
 : 4	0
O=C(COc1ccccc1)NCc1nnc(SCC(=O)Nc2nc3ccccc3s2)n1-c1cccc(C(F)(F)F)c1
 : -8	-3
CCOC(=O)c1nn(-c2ccc(F)cc2)c(=O)c2c(NC(=O)C3CCCCC3)scc12
 : 2	-2
Cc1cccc(C(=O)Nc2nn(C)c3c2C(C)CC(=O)N3)c1 (centres undefined)
 : -17	-19
CCN(CC#CCC1(O)c2ccccc2-c2ccccc21)CCO
 : 3	2
Cc1ccc(N2C(=O)CC(N3CCC(N4CCCCC4)CC3)C2=O)cc1 (centres undefined)
 : -4	-11
Cc1ccc(-c2ccc3c(c2)C(=O)OC3)cc1
 : 10	5
CCc1ccc(C(=O)N2CCC3(CC2)SCCN3C(=O)COc2ccccc2)cc1
 : 16	20
O=C(CCc1c[nH]c2ccccc12)NC12CC3CC(CC(C3)C1)C2
 : 6	13
CCn1c(O)c(C=Nc2c(C)nn(C)c2C)c(=O)n(CC)c1=S
 : -2	-8
CC(=O)Nc1cccc(-c2cnc3c(Nc4cccc(OC(F)(F)C(F)F)c4)nccn23)c1
 : -2	-8
O=C1OC(c2ccccc2)=NC1C=NN1CCOCC1 (centres undefined)
 : -4	-6
Cc1c(C)c2c(c(C)c1O)CCC(C)(C(=O)O)O2 (centres undefined)
 : -9	-11
CCN(Cc1ccc(F)cc1)C(=O)CCc1ccc(O)cc1
 : 4	-6

Copied from above, three compounds:
Each structure is followed by: NPYLR7 ag	NPYLR7 ag max-min
O=C1OC(c2ccccc2)=NC1C=NN1CCOCC1 (centres undefined)
 : -4	-6
Cc1c(C)c2c(c(C)c1O)CCC(C)(C(=O)O)O2 (centres undefined)
 : -9	-11
CCN(Cc1ccc(F)cc1)C(=O)CCc1ccc(O)cc1
 : 4	-6

Next compounds follow.
Each structure is followed by: NPYLR7 ag	NPYLR7 ag max-min
CCCNC(=O)C1(C)CCCN(Cc2ccnc3ccccc23)C1 (centres undefined)
 : 3	3
Nc1ncncc1-c1noc([C@@H]2CCCN2)n1
 : -7	-16
COCCN(Cc1ccc(OS(=O)(=O)c2ccc(NC(C)=O)cc2)cc1)C(=O)c1cccs1
 : 1	10
CC(C)c1ccc(CC(=O)N2CCC2(C)C(=O)NS(=O)(=O)c2ccc(C#N)cc2)cc1 (centres undefined)
 : 8	8
COc1cc(C(=O)NCc2c(C)noc2C)nc(OC)n1
 : 0	9
N#CCCN(Cc1ccccc1)C(=O)c1ccc(-n2nc(-c3ccc(Cl)cc3)cc2N)cc1
 : -4	-7
CC1(C)CC(NC(=O)CCn2ccc3ccccc32)CC(C)(C)N1
 : 0	-1
Cc1cc(C)cc(COc2coc(CN3CCN(C(=O)/C=C/c4ccc(OC(F)(F)F)cc4)CC3)cc2=O)c1
 : 24	14
Oc1c(N=Nc2ccccc2)cc2c3c1CCCN3CCC2
 : 0	-1
C=CCSCC(=O)NCC(C)(COC)NC(=O)CSCC=C (centres undefined)
 : -10	-12
COc1ccc(-c2cc(=NCCC(=O)O)c3cc(C)ccc3o2)cc1OC
 : 0	-2
CC(C)(C)C(Cn1ccnc1)NC(=O)Cc1ccc2c(c1)OCO2 (centres undefined)
 : 1	0
CCc1ncc(C(=O)N2C[C@H]3CC=CC[C@H]3C2)cn1
 : -3	-3
c1ccn2c(C3CCN(Cc4cc5n(n4)CCCNC5)CC3)nnc2c1
 : 2	-5
COc1c(F)ccc(C(=O)N(Cc2c(C)nn(C)c2C)C2CC2)c1F
 : -1	-1
O=C(O)COc1ccc(/C=C2/NC(=S)NC2=O)cc1
 : -2	-3
CC(C)N(C)C(=O)CN1CCCC1CC(=O)c1ccc(F)cc1 (centres undefined)
 : 1	-1
COc1ccc(C2(O)CN(c3ccccc3)C3=[N+]2CCCS3)cc1 (centres undefined)
 : 5	5
COc1ccc(-c2cc(C(=O)NCc3ccc4c(c3)OCO4)n(-c3ccc([N+](=O)[O-])cc3)n2)cc1
 : 21	18
N#Cc1ccccc1NC(=O)Nc1ccc(N2CCOCC2)c(Cl)c1
 : 13	10
C=CCN(Cc1nc2sc(C(=O)OC(C)C)c(C)c2c(=O)[nH]1)CC(O)COc1ccc(Cl)cc1 (centres undefined)
 : -10	-6
COc1ccc(C(=O)NNC(=O)CC2Sc3ccccc3NC2=O)cc1 (centres undefined)
 : 7	8
Cc1ccc(CN2CC(O)CN(C(=O)OCC(C)(C)C)CC2=O)cc1 (centres undefined)
 : 2	14
CCC(C)N(Cc1cc(NC(=O)c2ccco2)ccc1N(C)C)C(=O)COC (centres undefined)
 : 3	2
CCCCCN(C(=O)c1cccc([N+](=O)[O-])c1)C(C)c1nc2ccccc2c(=O)n1-c1cccc(Cl)c1C (centres undefined)
 : -2	-7

Bioassay records: PubChem, Fisher Drug Discovery Resource Center
